Screening results from PubChem.
Hedgehog inh: Hedgehog pathway signaling inhibitors, primary screen, luminescence, Shh-LIGHT2 cells, Gli-luciferase; Shh-LIGHT2 Gli-luciferase reporter, 30 h; inhibition, % (test concentration not listed); actives 2.1% (n = 22,000); AID 2313, 2010;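 active = replicate mean of 65% or more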;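 also: pathway switched on by Shh-conditioned medium diluted 1 in 25 in low serum; 100 nL library stock added to about 40 µL; 0% = median of neutral wells and 100% = positive control level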
PD-1 reversal: activators reversing PD-1 mediated T-cell inhibition, primary screen, luminescence, primary human CD4 T cells, PD-L1 beads | CellTiter-Glo 96 h | activation, % (no concentration beside the values) | 29,000 tested, under 10 active | AID 2316, 2010;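 active = replicate mean of 50% or more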;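 also: 0% = median vehicle wells and 100% = positive control; 100 nL library stock added to about 50 µL; numbers are from one replicate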
MITF inhib: inhibitors of MITF, primary screen, MITF inhibitor project, cell-based, luminescence | AID 2240, 2010 | inhibition, % (no concentration beside the values) | TRPM1 promoter luciferase, 24 h | actives 0.28% (n = 37,000);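 active = most replicates at 85% or more, or half of them and the mean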;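 also: human melanocyte line stably carrying TRPM1 promoter luciferase reporter; 0% = vehicle wells and 100% = a positive control; the first replicate is given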
YB-1 expression: inhibitors of YB-1 gene expression, primary screen, cell-based, fluorescence | actives 0.37% (n = 30,000) | delta delta Cp (YB-1 minus CDIP) (no concentration beside the values) | U2OS, qRT-PCR YB-1 vs CDIP delta delta Cp, 16 h; stronger effect = higher value; zero = DMSO, each unit about twofold;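 active = delta delta Cp rounded down to an integer at or above 3, about 3 SD of DMSO wells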;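 also: higher means less YB-1 transcript or more CDIP transcript relative to DMSO; stock transfer was 100 nL into about 100 µL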
* hit, by the source's call; . = no result given; & = joins results of further samples.

SMILES | Hedgehog inh | PD-1 reversal | MITF inhib | YB-1 expression
CCOC(=O)c1c(C)oc2ccc(OCC(=O)c3ccc(Cl)cc3)cc12 | . | 1.3 | -8.9 | .
O=C(O)CCC(=O)Nc1ccc(S(=O)(=O)Nc2nccs2)cc1 | -7.1 | . | 20.2 | -0.118
C[C@@H]1CN([C@H](C)CO)C(=O)c2cccc(NC(=O)Nc3ccc(F)cc3)c2O[C@H]1CN(C)Cc1ccc(-c2ccccc2)cc1 | 8.1 | -5.6 | 25.6 | -0.796
Cc1ccc(S(=O)(=O)CCSC2=CC(=O)CC(C)(C)S2)cc1 | 33.3 | -1.0 | 0.8 | 0.469
COc1ccc(S(=O)(=O)Nc2ccc3c(c2)C(=O)N([C@@H](C)CO)C[C@@H](C)[C@@H](CN(C)S(=O)(=O)c2ccc(Cl)cc2)O3)cc1 | 6.4 | -0.1 | 3.5 | -0.0318
Cc1nc2n(c(=O)c1CCN1CCC(c3noc4cc(F)ccc34)CC1)CCCC2 | -42.0 | . | -8.8 | -0.345
Oc1ccc(CCCc2ccc3c(c2)OCO3)c(O)c1 | -22.8 | 0.7 | -14.1 | -0.0261
C/C=C(/C)C(=O)O[C@H]1C[C@@](C)(O)C(=O)[C@@H](OC(=O)/C(C)=C\C)[C@@]2(C)CC[C@@](O)(C(C)C)[C@H]12 | -10.6 | 0.5 | -10.7 | 0.245
CC(C)NC(=O)Nc1cccc2c1O[C@@H](CN(C)S(=O)(=O)c1ccc(Cl)cc1)[C@H](C)CN([C@H](C)CO)C2=O | -7.1 | 1.7 | 9.6 | 0.171
C[C@@H]1CN([C@@H](C)CO)C(=O)c2cc(NC(=O)C3CCCCC3)ccc2O[C@@H]1CN(C)Cc1ccc(C(F)(F)F)cc1 | -4.5 | 1.1 | 8.6 | -0.564
COc1ccc(S(=O)(=O)N(C)CC(=O)Nc2ccccc2SC)cc1Cl | . | -1.7 | 3.6 | .
Fc1ccccc1OCCCCSc1ncccn1 | . | 0.5 | -92.2 | .
C[C@@H]1CN([C@H](C)CO)C(=O)c2cccc(NS(=O)(=O)c3cn(C)cn3)c2O[C@H]1CN(C)C(=O)Nc1ccc2c(c1)OCO2 | 13.7 | 1.5 | 0.3 | -0.362
O=C(NCCN1CCOCC1)c1ccc(Cl)c(S(=O)(=O)N2CCOCC2)c1 | . | 3.1 | -12.4 | .
O=C(CSc1nc2ccccc2o1)OCc1ccccc1 | -17.1 | 0.1 | -3.7 | -0.373
CC(=O)c1ccc(NC(=O)CC2Nc3cccc4cccc(c34)NC2=O)cc1 (stereo not drawn) | . | -4.8 | 28.1 | .
Cc1ccc(S(=O)(=O)N(CC(N)=O)c2ccc(Br)cc2)cc1 | . | 0.8 | -4.7 | .
COC(=O)c1ccccc1NC(=O)Cn1ccc([N+](=O)[O-])n1 | . | 1.3 | -11.8 | .
C[C@H](CO)N1C[C@H](C)[C@H](CN(C)C(=O)Nc2ccc(C(F)(F)F)cc2)Oc2ccc(NS(=O)(=O)c3ccccc3)cc2CC1=O | 31.3 | . | 4.6 | 0.0101
CCOC(=O)c1nnn2c3ccccc3c(=O)n(Cc3ccc(Cl)cc3)c12 | . | 1.0 | -13.3 | -0.654
CNC[C@H]1Oc2c(NC(=O)c3ccncc3)cccc2C(=O)N([C@H](C)CO)C[C@@H]1C | . | -0.9 | 7.9 | -0.366
C[C@@H]1CN([C@@H](C)CO)C(=O)c2cccc(NC(=O)Nc3ccc(C(F)(F)F)cc3)c2O[C@@H]1CN(C)C(=O)Nc1ccccc1 | 23.4 | 0.0 | 1.8 | -0.24
Cc1ccc(Cl)c(Nc2ccccc2C(=O)O)c1Cl | -91.7&-38.1 | . | 9.2&-10.7 | -0.0623&-0.0245
COc1ccc(S(=O)(=O)Nc2ccc3c(c2)C(=O)N([C@@H](C)CO)C[C@@H](C)[C@@H](CN(C)C(=O)NC(C)C)O3)cc1 | . | 0.0 | -4.4 | 0.247
COc1cc2ncnc(Nc3ccc(Cl)cc3F)c2cc1OC | -122.4 | 1.3 | -0.6 | 0.136
Cc1noc(C)c1NC(=O)Nc1ccc2c(c1)CC(=O)N([C@@H](C)CO)C[C@H](C)[C@@H](CN(C)C(=O)Nc1ccc(C(F)(F)F)cc1)O2 | . | . | 4.9 | 0.252
CCN(CC)c1ccc2cc(C(N)=O)c(=Nc3ccc(F)cc3)oc2c1 | -26.8 | -0.6 | 1.6 | 0.19
C#Cc1cccc(Nc2ncnc3cc(OC)c(OC)cc23)c1 | 27.7 | 1.5 | 71.4 | 0.159
COc1ccc(C(=O)COC(=O)CN2C(=O)C3CC=CCC3C2=O)cc1 (stereo not drawn) | -15.2 | 0.9 | -9.1 | -0.232
COc1ccc(-n2c(=S)[nH]c3cc(C(=O)N4CCN(c5ccccc5)CC4)ccc3c2=O)cc1 | 2.8 | -1.1 | -5.4 | -0.156
Cc1nn(Cc2ccccc2)c(C)c1CCC(=O)O | . | 1.9 | -54.4 | .
COc1ccc(OC(C)c2nc(-c3ccncc3)no2)cc1 (stereo not drawn) | . | 1.3 | 25.5 | .
CC(=O)c1cccc(NC(=O)NCc2cnn(C)c2)c1 | . | 1.3 | 10.4 | .
Cc1noc(C)c1NC(=O)N(C)C[C@@H]1Oc2ccc(NS(=O)(=O)c3ccc(Cl)cc3)cc2C(=O)N([C@@H](C)CO)C[C@@H]1C | 21.1 | 3.0 | 0.2 | -0.417
CC[n+]1c(C=C2C=C(C)CC(C)(C)C2)oc2ccccc21 | . | -4.1 | 28.4 | -0.787
CC(C)NC(=O)Nc1cccc2c1O[C@@H](CN(C)Cc1ccc(C(=O)O)cc1)[C@H](C)CN([C@H](C)CO)C2=O | -18.5 | 1.5 | -2.7 | 0.198
Cc1noc(C)c1NC(=O)Nc1cccc2c1O[C@@H](CN(C)S(C)(=O)=O)[C@H](C)CN([C@H](C)CO)C2=O | 10.9 | 1.4 | -3.4 | 0.0697
COc1ccc(CC(=O)c2ccc(O)cc2O)cc1 | -115.1 | . | 0.4 | 0.153
COC(=O)C1=CO[C@@H](O[C@@H]2O[C@H](CO)[C@@H](O)[C@H](O)[C@H]2O)[C@@H]2[C@@](C)(O)[C@@H](OC(=O)/C=C/c3ccc(OC)c(O)c3)C[C@]12O | -17.5 | 2.0 | -11.0 | -0.491
CCN(CC(=O)Nc1ccc(OC)cc1)S(=O)(=O)c1ccc(Cl)cc1 | . | 2.7 | 4.1 | .
COc1ccc(CN(C)C[C@@H]2Oc3ccc(NC(=O)Nc4cccc5ccccc45)cc3C(=O)N([C@@H](C)CO)C[C@@H]2C)cc1 | . | -0.5 | 14.9 | -0.442
Cc1noc(C)c1S(=O)(=O)N(C)C[C@H]1Oc2c(NC(=O)C3CCOCC3)cccc2C(=O)N([C@H](C)CO)C[C@H]1C | -90.3 | 0.7 | -7.2 | -0.369
CC(C)NC(=O)N(C)C[C@@H]1OCCCC[C@@H](C)Oc2ccc(NC(=O)c3ccccc3)cc2C(=O)N([C@H](C)CO)C[C@@H]1C | -48.0 | 1.2 | -6.9 | -0.264
C/C=C(/C)C(=O)OC(C)(C)C1Cc2cc3ccc(=O)oc3cc2O1 (stereo not drawn) | 2.9 | 0.1 | 1.9 | -0.0191
C[C@H]1CN([C@@H](C)CO)C(=O)c2cccc(NC(=O)C3CCOCC3)c2O[C@@H]1CN(C)C | -26.5 | 0.0 | 0.3 | -0.0929
COc1ccc(CN(C)C[C@H]2OCCCC[C@@H](C)Oc3ccc(NC(=O)c4ccncc4)cc3C(=O)N([C@H](C)CO)C[C@@H]2C)cc1 | -7.3 | . | -11.4 | 0.226
COc1ccc(S(=O)(=O)Nc2cccc3c2O[C@H](CN(C)C(=O)NC(C)C)[C@H](C)CN([C@@H](C)CO)C3=O)cc1 | -73.2 | 0.8 | -4.0 | -0.0318
C[C@@H]1CN([C@@H](C)CO)C(=O)c2cc(NS(=O)(=O)c3ccc(F)cc3)ccc2O[C@@H]1CN(C)Cc1ccc(Oc2ccccc2)cc1 | . | . | 28.7 | -0.369
O=C(O)CC(Cc1ccccc1)C(=O)Nc1ccc(Cl)c(Cl)c1 (stereo not drawn) | . | 0.0 | -12.1 | .
Cc1ccc(O)c(NC(=O)CCCOc2ccc(Cl)cc2Cl)c1 | . | -3.5 | 1.3 | .
COc1ccc(CN(C)C[C@H]2Oc3ccc(NS(=O)(=O)c4c(C)noc4C)cc3CC(=O)N([C@H](C)CO)C[C@H]2C)cc1 | . | -0.5 | -17.7 | -0.196
O=C(CN1C(=O)CNC1=O)Nc1ccc(Cl)cc1 | . | 3.5 | -12.0 | .
C[C@@H]1CCCCO[C@@H](CN(C)Cc2ccc3c(c2)OCO3)[C@@H](C)CN([C@H](C)CO)C(=O)c2cc(NS(C)(=O)=O)ccc2O1 | -13.8 | -1.5 | -6.4 | 0.0145
Cc1noc(C)c1S(=O)(=O)Nc1ccc2c(c1)C(=O)N([C@H](C)CO)C[C@@H](C)[C@@H](CN(C)Cc1ccc3c(c1)OCO3)O2 | 0.6 | 0.8 | -0.7 | -0.182
C[C@@H]1CCCCO[C@@H](CN(C)S(=O)(=O)c2ccc(Cl)cc2)[C@@H](C)CN([C@H](C)CO)C(=O)c2cc(NS(C)(=O)=O)ccc2O1 | -6.7 | -2.5 | 1.2 | 0.264
C[C@H]1CN([C@@H](C)CO)C(=O)c2cccc(NS(=O)(=O)c3ccc(Cl)cc3)c2O[C@H]1CN(C)Cc1ccc(-c2ccccc2)cc1 | 52.0 | -4.9 | 10.9 | -0.0261
C[C@H](CO)N1C[C@H](C)[C@@H](CN(C)S(=O)(=O)c2ccc(F)cc2)Oc2ccc(NS(=O)(=O)c3ccc(Cl)cc3)cc2C1=O | 29.3 | -0.2 | -8.7 | -0.295
CNC[C@H]1Oc2ccc(NS(=O)(=O)c3ccc(C)cc3)cc2C(=O)N([C@H](C)CO)C[C@@H]1C | -28.2 | 1.1 | -4.8 | -0.291

Grouped by structure, the entries above containing an aryl methoxy group
SMILES | Hedgehog inh | PD-1 reversal | MITF inhib | YB-1 expression
COc1ccc(S(=O)(=O)Nc2ccc3c(c2)C(=O)N([C@@H](C)CO)C[C@@H](C)[C@@H](CN(C)S(=O)(=O)c2ccc(Cl)cc2)O3)cc1 | 6.4 | -0.1 | 3.5 | -0.0318
COc1ccc(S(=O)(=O)N(C)CC(=O)Nc2ccccc2SC)cc1Cl | . | -1.7 | 3.6 | .
COc1ccc(S(=O)(=O)Nc2ccc3c(c2)C(=O)N([C@@H](C)CO)C[C@@H](C)[C@@H](CN(C)C(=O)NC(C)C)O3)cc1 | . | 0.0 | -4.4 | 0.247
COc1cc2ncnc(Nc3ccc(Cl)cc3F)c2cc1OC | -122.4 | 1.3 | -0.6 | 0.136
C#Cc1cccc(Nc2ncnc3cc(OC)c(OC)cc23)c1 | 27.7 | 1.5 | 71.4 | 0.159
COc1ccc(C(=O)COC(=O)CN2C(=O)C3CC=CCC3C2=O)cc1 (stereo not drawn) | -15.2 | 0.9 | -9.1 | -0.232
COc1ccc(-n2c(=S)[nH]c3cc(C(=O)N4CCN(c5ccccc5)CC4)ccc3c2=O)cc1 | 2.8 | -1.1 | -5.4 | -0.156
COc1ccc(OC(C)c2nc(-c3ccncc3)no2)cc1 (stereo not drawn) | . | 1.3 | 25.5 | .
COc1ccc(CC(=O)c2ccc(O)cc2O)cc1 | -115.1 | . | 0.4 | 0.153
COC(=O)C1=CO[C@@H](O[C@@H]2O[C@H](CO)[C@@H](O)[C@H](O)[C@H]2O)[C@@H]2[C@@](C)(O)[C@@H](OC(=O)/C=C/c3ccc(OC)c(O)c3)C[C@]12O | -17.5 | 2.0 | -11.0 | -0.491
CCN(CC(=O)Nc1ccc(OC)cc1)S(=O)(=O)c1ccc(Cl)cc1 | . | 2.7 | 4.1 | .
COc1ccc(CN(C)C[C@@H]2Oc3ccc(NC(=O)Nc4cccc5ccccc45)cc3C(=O)N([C@@H](C)CO)C[C@@H]2C)cc1 | . | -0.5 | 14.9 | -0.442
COc1ccc(CN(C)C[C@H]2OCCCC[C@@H](C)Oc3ccc(NC(=O)c4ccncc4)cc3C(=O)N([C@H](C)CO)C[C@@H]2C)cc1 | -7.3 | . | -11.4 | 0.226
COc1ccc(S(=O)(=O)Nc2cccc3c2O[C@H](CN(C)C(=O)NC(C)C)[C@H](C)CN([C@@H](C)CO)C3=O)cc1 | -73.2 | 0.8 | -4.0 | -0.0318
COc1ccc(CN(C)C[C@H]2Oc3ccc(NS(=O)(=O)c4c(C)noc4C)cc3CC(=O)N([C@H](C)CO)C[C@H]2C)cc1 | . | -0.5 | -17.7 | -0.196

The list is partial, so the mix of outcomes need not match the whole.
